Compound activity from PubChem BioAssay.
Six1-Eya2 inh – Six1/Eya2 interaction inhibition; AID 651725; Q15475+O00167; AlphaScreen GST-Six1/His-Eya2 binding, biochemical; active compounds read low; control for the full effect not named in the record; hit rate 0.56% among 360,000; activity change, % (no concentration beside the values); in the data active = activity change below about -65%; inconclusive = about -30% to -65%; inactive = above about -30%; further: on the % scale 0 is the no-effect control and ±100 the full control effect
Target sequence (O00167 whole entry, looked up): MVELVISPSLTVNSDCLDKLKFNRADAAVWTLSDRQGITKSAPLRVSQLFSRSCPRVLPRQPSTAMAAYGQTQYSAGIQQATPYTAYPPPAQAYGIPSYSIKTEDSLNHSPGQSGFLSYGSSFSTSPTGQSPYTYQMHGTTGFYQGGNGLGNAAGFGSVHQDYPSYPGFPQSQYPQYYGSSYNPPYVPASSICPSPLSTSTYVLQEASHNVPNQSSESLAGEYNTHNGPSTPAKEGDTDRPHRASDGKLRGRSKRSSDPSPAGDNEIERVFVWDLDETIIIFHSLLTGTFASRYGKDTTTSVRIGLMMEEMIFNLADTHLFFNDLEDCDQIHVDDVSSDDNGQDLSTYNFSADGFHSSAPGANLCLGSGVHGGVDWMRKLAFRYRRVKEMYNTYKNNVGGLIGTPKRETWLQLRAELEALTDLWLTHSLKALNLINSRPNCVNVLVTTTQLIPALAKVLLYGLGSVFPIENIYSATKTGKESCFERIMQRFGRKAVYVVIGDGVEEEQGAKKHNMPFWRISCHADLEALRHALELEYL
Target sequence (Q15475 whole entry, looked up): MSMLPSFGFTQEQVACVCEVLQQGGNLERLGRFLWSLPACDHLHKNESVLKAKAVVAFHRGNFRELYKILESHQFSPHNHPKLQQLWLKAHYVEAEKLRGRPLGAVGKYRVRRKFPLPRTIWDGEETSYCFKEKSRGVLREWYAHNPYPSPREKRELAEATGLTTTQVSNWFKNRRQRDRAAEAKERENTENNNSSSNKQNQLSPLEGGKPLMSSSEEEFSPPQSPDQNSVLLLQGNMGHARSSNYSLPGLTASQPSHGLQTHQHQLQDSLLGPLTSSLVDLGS
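Six1/Eya2 binding was read as AlphaScreen signal after compounds were pinned into GST-Six1 plus His-tagged Eya2 (5X stock 250/500 nM) in pH 8.0 Tris/NaCl/TCEP buffer, beads added, then incubated 1 h, 37 C, dark.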
PINK1 expr mod – changes PINK1 expression; Potency, µM (series often up to 76.6 µM), for inactives: at the highest dose activation (PINK1 increase), hits mostly activators; hit rate 0.2% among 410,000; PINK1 immunofluorescence, high-content cytometry, 24 h; active = well fitted activation curve with a large enough effect; inconclusive = small, poorly fitted or top-dose-only effect; inactive = flat fitted curve, though single readings scatter; cell line not stated here;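 further: potency means the concentration at half of the fitted maximal effect; % of control where 0% means no effect; nearly all actives have a fitted effect of over 65% in size; a mitochondrial uncoupler was the plate control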
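A stable cell line was treated with compounds at 5 concentrations for 24 hours, with CCCP as control. PINK1 levels and mitochondrial localization were measured by immunofluorescence with mitochondrial, cell and nuclear markers after fixation, read by laser-scanning cytometry.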
TRPML1 ag – activates the human TRPML1 channel | Q9GZU1 | TRPML1-expressing cells, Ca2+ dye fluorescence, FDSS; host cell line not named in the record; reference of the full effect not given here | activation, % (test concentration not listed) | hit rate 0.12% among 410,000 | AID 624414; in the data active = activation above about 50%; inconclusive = about 30% to 50%; inactive = below about 30%; further: 0% is about no effect; the text of the record puts the active cut at 80%
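TRPML1-DL cells, Tet-induced overnight (~16 h, 37 degrees C), loaded 45-90 min at room temperature with Ca8 no-wash calcium dye plus quencher. FDSS fluorescence: 10 s baseline, compound pin-transfer, 110 s agonist read, then EC80 54-4 (4uM final) and 110 s antagonist read.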
TRPML1 blocker – inhibitors of human TRPML1 channel | Q9GZU1 | TRPML1-inducible cells, Ca2+ dye fluorescence, FDSS; active compounds read low; inhibition of EC80 agonist-evoked calcium signal | activity change, negative = inhibition, % (no concentration beside the values) | hit rate 0.02% among 390,000; in the data active means activity change below about -50%; inconclusive means about -30% to -50%; inactive means above about -30%;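 further: stimulus is agonist 54-4 at its EC80 concentration; on the % scale 0 is the no-effect control and ±100 the full control effect; compound concentration not given in the record; the text of the record puts the active cut at -80%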
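Calcium fluorescence in TRPML1-DL cells induced overnight with Tet: a 110 s read after compound pin addition, then a 110 s antagonist read after challenge with 54-4 at 4 uM final (EC80).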
D2 potentiator – human D2 receptor positive allosteric modulation; P14416; DiscoveRx D2 beta-arrestin cells, luminescence, 90 min; 100% = 57 uM dopamine signal; potentiation, % (test concentration not listed); hit rate 0.23% among 360,000; active = potentiation of 50% or more; inconclusive = 30% to 50%; inactive = 30% or less;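 further: compound concentration not given in the record; tested on top of an EC20 dose of dopamine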
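PathHunter D2 cells, attached overnight at 37 deg C, received compound in DMSO plus dopamine at EC20 (50 nM final) for 90 min at 37 deg C. Beta-arrestin recruitment was read as luminescence after 1 h with detection reagent at ambient temperature.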
D2 ag – agonists of human D2 dopamine receptor (beta-arrestin) | hit rate 0.084% among 360,000 | P14416 | DiscoveRx PathHunter D2 beta-arrestin, luminescence, 90 min; 100% = 57 uM dopamine signal | activation, % (concentration not given with the values); in the data active = activation above about 40%; inconclusive = about 15% to 40%; inactive = below about 15%; further: compound concentration not given in the record; the text of the record calls up to 30% inactive
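DiscoveRx PathHunter D2 beta-arrestin cells (2,100/well) attached overnight, then compound-stimulated 90 min at 37 C in HBSS/10 mM HEPES/0.1% Tween-20 buffer; beta-galactosidase complementation read by luminescence after 1 h at ambient temperature. Dopamine 57 uM final (EC100) as control.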
Starred values were filed as active, the others as inactive; u = inconclusive; x = no result given; & = joins results of further samples; [ ] = dose if it differs, or a comment.

Molecule	Six1-Eya2 inh	D2 ag	TRPML1 blocker	PINK1 expr mod	D2 potentiator	TRPML1 ag
CCCn1c(SCC(N)=O)nnc1C(C)C	0	-1.9	3	-1.3%	-15	-0.3
Cc1cccc(N2CC(C(=O)Nc3ccc(S(=O)(=O)N4CCOCC4)cc3)CC2=O)c1 (configuration not stated)	5	3.0	10	-1.0%	4	-0.5
COCCn1nnnc1C(c1cccc(C(F)(F)F)c1)N1CCOCC1 (configuration not stated)	2	-2.4	0	-2.2%	12	-0.4
COc1ccc(NC(=O)c2oc3ccccc3c2NC(=O)Cc2coc3cc(C)ccc23)cc1	x	x	4	-0.5%	x	1.1
CC(/C=C/c1ccc(O)cc1)=NNc1ccccc1	-16	13	35	6.5%	-6	-0.2
COC(=O)c1sc2ncccc2c1OCc1c(Cl)cccc1Cl	9	-1.5	22	2.6%	1	2.3
O=C1OC[C@@H]2CCCN2C(=O)[C@H](CC(=O)N(CCO)Cc2ccccc2)C/C=C\CC[C@@H]1Cc1ccc(F)cc1	1	-6.5	13	0.1%	-4	-0.1
CCc1ccccc1OCCCCN1CCCC1	-3	-5.5	0	-0.8%	-38	-0.7
N#Cc1ccccc1Cn1c(-c2cscn2)nc2ccccc21	-7	-1.8	-4	2.6%	2	2.2
COCCc1nn2c(=O)cc(COC(=O)COc3ccccc3C)nc2s1	x	x	-17	1.0%	x	-0.2
O=C(O)CN1C(=O)S/C(=C\c2ccc3c(c2)OCO3)C1=O	0	-5.8	19	-0.4%	-4	1.5
CCC(C)[C@@H](C(=O)N1CCNCC1)n1cc(CCCN=C(N)N)nn1 (some centres not stated)	3	1.6	-2	0.0%	-2	-0.3
COc1ccccc1C1CCN(C(=O)c2ccc(C(C)(C)C)cc2)CC1	-3	-0.4	0	-2.4%	-12	0.2
O=[N+]([O-])c1cc(C(F)(F)F)ccc1Oc1cccnc1[N+](=O)[O-]	-5	6.9	8	-0.2%	9	-0.8
NC(=O)C1(N2CCCCC2)CCN(Cc2nc3ccccc3c(=O)[nH]2)CC1	1	-1.7	0	-0.4%[38.3 µM]	-2	0.7
CCOC(=O)C(/C=C(\C#N)C(=O)OCC)=C(/N)N1CCN(c2ccc(Cl)cc2)CC1	-17	-2.5	-10	0.8%	-20	69*
Cc1ccc(C(C)C)cc1-n1nnc(-c2cccc(Cc3ccc4ccccc4c3)c2)c1C(C)O (configuration not stated)	-1	-1.9	-6	2.0%	5	-0.3
CCOCCCNC(=O)C(c1ccc(OC)cc1)N(Cc1ccc2c(c1)OCO2)C(=O)c1cnccn1 (configuration not stated)	7	0.9	12	0.2%	-2	0.0
COc1cc(C(=O)OCC(=O)N2CCC(C)CC2)cc2c1OCCO2	-5	-3.2	-2	0.9%	-8	-0.4
O=C1CC(c2ccco2)Cc2nc(Nc3ccc(F)cc3)ncc21 (configuration not stated)	-13	-5.6	-13	-0.9%	-8	2.3
CCOc1cc(C)nc(N2CCCC(C(=O)NCc3ccccc3F)C2)n1 (configuration not stated)	2	-0.6	-15	-3.2%[38.3 µM]	0	0.9
O=C(Nc1cc(Br)ccc1O)c1cc(-c2cccs2)on1	10	0.6	u	8.1%	3	-0.2
CCOc1cc(/C=C2/C(=N)N3OC(C)=CC3=NC2=O)ccc1OCCOc1ccccc1	8	-0.7	-18	1.4%	-19	1.0
CC(=O)c1cccc(NC(=O)c2cccc(S(=O)(=O)N(C)C)c2)c1	1	-0.2	-9	-1.9%	3	-0.6
c1cc2c(cc1C1CCCCC1)c1c3n2CCN=C3CCC1	-7	-3.1	9	14%	-12	0.0
CN(C)S(=O)(=O)c1cccc(C(=O)NCc2cccs2)c1	4	0.3	12	-1.7%	-30	0.5
Cc1ccccc1C(=O)Nc1ccc(-c2nnc(SC(C)C(=O)O)n2C)cc1 (configuration not stated)	-1	-0.2	-5	-0.1%	-2	1.0
COc1cc(-n2c(=O)c3ccccc3n(CC(=O)c3ccc(F)cc3)c2=O)cc(OC)c1OC	5	-0.5	-6	7.6%	-4	-0.3
COc1cc(NC(=O)c2cc3c(=O)oc4ccc(C)cc4c3s2)cc(OC)c1OC	x	x	-11	0.5%	x	0.2
CN(Cc1cccnc1)Cc1cn(C)nc1-c1cccc(Cl)c1	1	-3.7	u	-0.5%&-1.0%	-11	-0.9&-0.5
CC(=O)c1ccc(OCCCC(=O)Nc2ccc(S(=O)(=O)N3CCOCC3)cc2)cc1	0	-3.8	-1	-2.6%	3	0.4
C=CS(=O)(=O)N(Cc1ccccc1Br)[C@H](CO)CC(C)C	-12	-1.9	-9	-0.4%	-10	1.1&-0.4
N#Cc1ccc(CN2CCN(C(=O)CCNS(=O)(=O)c3ccc(F)c(F)c3)CC2)cc1	4	1.4	5	0.6%	-2	-0.3
CC1CC(OC(=O)c2ccccc2C(=O)c2ccc(Cl)cc2)C(=O)O1 (configuration not stated)	-5	-3.2	10	0.7%	-4	0.5
CCOc1ccc(N(CC(=O)N2CCOCC2)S(=O)(=O)c2ccc(F)cc2)cc1	0	-2.1	-5	0.4%	-15	-0.1
Cc1cc(C)cc(NC(=O)c2sc3nc4n(c(=O)c3c2C)N=C(c2ccc(F)cc2)CS4)c1	x	x	31	0.8%	x	0.6
CCCCN(Cc1cc2cc(OC)ccc2[nH]c1=O)C(=O)COc1ccccc1	9	-1.7	2	-0.6%	6	-0.1
CCOC(=O)C1=CCC(c2ccccc2)N(S(=O)(=O)c2ccccc2)C1 (configuration not stated)	5	-3.8	81	1.8%	2	2.5
CC(C)COC(=O)N(C)C[C@@H]1OCc2cnnn2CCCC(=O)N([C@@H](C)CO)C[C@@H]1C	0	-0.8	x	1.5%	x	x
CC(=O)NC1(C2CCCCC2=O)CCCCC1 (configuration not stated)	5	-1.6	-8	-2.4%	5	1.7
O=C(CCS(=O)(=O)c1cccs1)Nc1ccc(C(=O)NC2CCN(Cc3ccccc3)CC2)cc1	0	-17	22	0.4%	-21	0.3
CC1OC(C(C)(C)C)CC2=C1C(=O)OC(C)(C)O2 (configuration not stated)	6	x	x	4.0%	x	-0.3
COc1ccc2ccccc2c1CN1CCN(C)CC1	0	-1.6	-2	-0.1%	-35	0.1
N#Cc1nc(COc2ccccc2)oc1N1CCCC1	-23	-5.7	30	-2.2%	-6	-0.5
Cc1cc(C)cc(NC(=O)Nc2ccc(Cl)cn2)c1	9	-3.0	20	0.3%	-2	-0.1

2 entries from above, as labelled records.
compound: CC(C)COC(=O)N(C)C[C@@H]1OCc2cnnn2CCCC(=O)N([C@@H](C)CO)C[C@@H]1C
  Six1-Eya2 inh: 0
  D2 ag: -0.8
  TRPML1 blocker: x
  PINK1 expr mod: 1.5%
  D2 potentiator: x
  TRPML1 ag: x

compound: COc1ccc2ccccc2c1CN1CCN(C)CC1
  Six1-Eya2 inh: 0
  D2 ag: -1.6
  TRPML1 blocker: -2
  PINK1 expr mod: -0.1%
  D2 potentiator: -35
  TRPML1 ag: 0.1

(list continues)
Molecule	Six1-Eya2 inh	D2 ag	TRPML1 blocker	PINK1 expr mod	D2 potentiator	TRPML1 ag
Clc1ncc(CSc2ccccc2)s1	25	0.6	19	3.5%	4	1.9
C/C(=N\NC(=O)C(=O)Nc1cccc(C(F)(F)F)c1)c1ccc(Cl)s1	5	2.0	1	-2.8%	9	-0.7
COc1cccc(C(=O)NCC(C)(C)SCc2ccc(F)cc2)c1	5	3.0	-6	0.7%	-5	1.4
CCCCN(C)CCCNC(=O)CN1N=C(c2ccc(OC)cc2)CCC1=O	x	x	-15	-0.4%	x	2.1
COc1ccc(N(C)C(=O)CCC(=O)Nc2ccc3nc(N4CCOCC4)cc(C)c3c2)c(OC)c1	-5	-1.4	-13	-0.5%[38.3 µM]	-12	2.4
CC1(S(=O)(=O)O)CC(=O)c2ccccc2C1=O (configuration not stated)	-2	1.4	-4	u	-7	-0.2
O=C1CC[C@@H](CN(Cc2ccccc2)Cc2cn[nH]c2-c2cc3ccccc3o2)N1	-6	-0.7	23	-2.1%	-4	-0.1
CON1C(=O)C(=O)N(OC)C2CCCCCC21 (configuration not stated)	-3	0.7	-14	-1.8%	-24	-0.1
Cc1ccc(C(=O)OCc2nc3ccccc3s2)o1	3	0.8	5	3.9%	-1	0.8
COc1ccccc1C1CCN(Cc2c(C)[nH]c3ccccc23)CC1	-14	1.1	39	12%	-17	-0.1
Cc1c(NC(=O)c2nn3c(C(F)(F)F)cc(-c4ccccc4)nc3c2Br)c(=O)n(-c2ccccc2)n1C	-29	-5.3	-2	11%	-2	-0.1
COc1ccc(S(=O)(=O)N2CCOC2CNC(=O)C(=O)NCc2ccc3c(c2)OCO3)cc1C (configuration not stated)	-3	1.4	8	2.5%	-1	-0.4
COC(=O)c1ccccc1NC(=O)N1CCN(Cc2ccco2)CC1	-7	1.4	23	1.5%	1	0.3
Cc1c(C(=O)NCCO)sc2nc3n(c(=O)c12)CCC3	-6	-2.3	-18	-1.8%	-1	0.4
O=c1ccc(=O)n(CCc2ccccn2)[nH]1	-1	-3.4	8	-0.4%	-2	0.2
COc1ccc(CCC(=O)NCCc2csc(-c3cccc(C)c3)n2)cc1	x	x	1	0.0%	x	2.2
O=C(NCc1ccc(F)cc1)C(c1ccco1)N(C(=O)c1csnn1)c1ccccc1 (configuration not stated)	-1	-0.6	7	0.1%	-5	0.3
Cc1cccc(C)c1NC(=O)COC(=O)c1c(C)nn(-c2ccccc2)c1C	-4	-0.1	9	-1.2%	0	0.0
Cc1ccccc1CN1C(=O)c2ccccc2S(=O)(=O)c2ccc(C(=O)OCC3CCCO3)cc21 (configuration not stated)	x	x	23	2.4%	x	2.6
CCCCCCCCN1C(=O)[C@H](CC(=O)N2CCOCC2)C[C@@]2(C(=O)OC)CCCCC=C12	4	x	x	2.3%	x	-0.7
CCOC(=O)c1c(NC(=O)CSc2nc3ccccc3s2)sc(C)c1C	9	-2.1	10	1.5%	-8	2.6
O=C(CCc1nc2ccccc2c(=O)[nH]1)OCC(=O)N1CCN(S(=O)(=O)c2ccccc2)CC1	0	-4.6	-2	-1.3%	-4	-1.2
CCCCOc1ccc(C(=O)NCC(=O)N2CCN(Cc3ccc4c(c3)OCO4)CC2)cc1	11	-7.3	9	-1.5%	-2	1.1
COc1ccc(CN2CCC(C(=O)Nc3ccc(Oc4ccccc4)nc3)CC2)cc1F	-11	-1.3	-12	1.9%	-15	0.7
CCCCCC(C)NC(=O)CN1C(=O)NC(C)(c2ccc3ccccc3c2)C1=O (configuration not stated)	-7	-2.3	-3	1.7%	-10	0.7
O=c1c2ccccc2nc(-c2ccco2)n1CCCn1ccnc1	-4	1.7	32	-3.8%[38.3 µM]	3	1.3
COc1cccc(C(=O)NN2CC(O)=C(c3nc(C)cs3)C2=N)c1	-2	-2.4	x	1.1%	-15	x
CCOc1ccc(C(=O)Nc2ccc3nn(-c4ccc(OC)c(Cl)c4)nc3c2)cc1	x	x	-22	0.0%	x	1.5

No enrichment for hits; about 1% have a hit in one of these screens.
